Compound activity (PubChem)
Ba CapD inh: inhibitors of Bacillus anthracis CapD enzyme; hit rate 0.23% among 140,000; purified CapD enzyme, fluorescence intensity read-out; hits give low values; some hits fall short of the stated cut; z-score (no concentration beside the values); AID 492967;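 active = z-score under -4 in either of two replicates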;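 note: stock transfer was 100 nL into about 40 µL; score is relative to mean and spread of the plate; one replicate is shown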
AID504770: E. coli YBA685 growth inhibition, screen for V. cholerae RctB inhibitors. E. coli YBA685 rctB-dependent plasmid, OD600 growth, 3 h; hits give low values. z-score (test concentration not listed). hit rate 0.27% among 130,000. AID 504770;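 active = z-score under -2 on both plates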;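 note: wells of about 30 µL received 100 nL stock; score is relative to mean and SD of the test wells; the first replicate is given; strong numbers were not always called active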
An asterisk follows results filed as active; . = not tested or not shown. A portion of the library; count on the stated rates, not on these rows.

no.	canonical_smiles	Ba CapD inh	AID504770
1	CC12CN3CC(C)(C1O)C(O)C(C)(C3)C2O (stereo not given)	.	-0.3
2	CCC(C)NC(=O)CSc1nc2ccccc2c(=O)n1CCNC(C)=O (stereo not given)	-0.92	-1
3	Cc1ccc(N=Cc2c(Sc3ccc(Cl)cc3)nc3sccn23)cc1	9.3	1.1
4	Cc1nnc(SCc2cc(Cl)c3c(c2)OCCCO3)n1C1CC1	.	0.35
5	CN(CC(=O)O)C(=O)c1ccco1	.	-0.85
6	C=CCSC1=N/C(=C\c2ccc(-c3ccc(F)cc3)o2)C(=O)S1	-0.34	-0.45
7	O=C(OCc1ccccc1)[C@@H]1CCCN1C(=O)c1cccs1	.	-0.9
8	O=c1oc2ccc(Br)cc2cc1-c1csnn1	0.19	-0.2
9	C[N+]1(CCOCc2ccccc2)CCOCC1	0.17	-0.7
10	O=C(CCCn1c(=S)[nH]c2ccc(Br)cc2c1=O)N1CCN(c2ccccn2)CC1	-0.21	.
11	O=C(N/N=C/c1ccsc1)c1ccc([N+](=O)[O-])cc1Cl	-0.32	.
12	O=C(OCc1cc(=O)n2c(n1)sc1ccccc12)C1CCN(S(=O)(=O)c2ccccc2)CC1	.	0.75
13	CC1CCCC(C)N1C(=O)Nc1ccccc1 (stereo not given)	0.015	0.05
14	COC(=O)/C=C/c1cc2ccccc2o1	11	0.4
15	CCOC(=O)c1cc(C)n(S(=O)(=O)c2ccc(C)cc2)c1C	-0.085	-1.3
16	CC(C)CC(NC(=O)CCN)C(=O)O (stereo not given)	-0.11	.
17	NC(=O)c1sccc1NC(=O)CSc1ccc(Cl)cc1	-0.32	0.25
18	O=C(Oc1ccc(/C=N/O)cc1)c1ccccc1	0.26	-0.7
19	CN(Cn1nc2c(Cl)cc(Cl)cn2c1=S)C1CCCCC1	.	-0.1
20	CN(C)c1oc(-c2ccc(Cl)cc2)nc1P(=O)(c1ccccc1)c1ccccc1	10	.
21	COC(=O)c1nnn(-c2nc(N3CCCCC3)nc(N3CCCCC3)n2)c1C	0.26	1.8
22	O=C(Cc1c[nH]c2ccccc12)OCC(=O)c1ccc(F)cc1	2.2	-0.3
23	COc1ccc(Cl)cc1-c1csc(CC#N)n1	.	0.85
24	O=C(NCc1noc2ccccc12)N1CCCCC1	0.17	0.85
25	CCn1cc(C(=O)O)c(=O)c2cnc(N3CCN(C(=S)NC)CC3)nc21	2.5	-0.75
26	Cc1ccc2c(c1)c1c(n2C)C(=O)CCC1	12	-0.2
27	CCN1CCC(N(Cc2cccc(OC)c2)C(=O)Nc2cc(C)cc(C)c2)CC1	-0.47	0.85
28	O=C(O)CC12CC3CC(CC(Cl)(C3)C1)C2	0.42	-1
29	CCn1c(=O)c2cc(C(=O)N(C)CCC#N)sc2c2ccccc21	4.7	-0.4
30	Cn1c(SCc2ccccc2)nnc1C1CCCN1CC(=O)N1CCN(c2ccc(F)cc2)CC1 (stereo not given)	.	-0.75

Not a retest: an excerpt of the list.
no.	canonical_smiles	Ba CapD inh	AID504770
28	O=C(O)CC12CC3CC(CC(Cl)(C3)C1)C2	0.42	-1
29	CCn1c(=O)c2cc(C(=O)N(C)CCC#N)sc2c2ccccc21	4.7	-0.4
30	Cn1c(SCc2ccccc2)nnc1C1CCCN1CC(=O)N1CCN(c2ccc(F)cc2)CC1 (stereo not given)	.	-0.75

Next section:
no.	canonical_smiles	Ba CapD inh	AID504770
31	CS(=O)(=O)c1cnc(-c2ccccc2)nc1-c1ccc(Cl)c(Cl)c1	-0.12	.
32	CC1=C(C(=O)Nc2ccccc2)C(c2ccc(C)o2)n2c(s/c(=C/c3ccccc3Cl)c2=O)=N1 (stereo not given)	-0.58	.
33	COC(=O)/C=C1\S/C(=N\c2ccccn2)N(c2cccc(C(F)(F)F)c2)C1=O	-0.39	-0.1
34	CCn1cc(C=C2C(=O)OC(C)(C(C)(C)C)OC2=O)c2ccccc21 (stereo not given)	-0.42	-0.05
35	C/C(CSC(=O)c1c(-c2c(F)cccc2Cl)noc1C)=N\O	-1.2	-0.2
36	COc1cccc(-n2cc(C(=O)NCCc3ccc(S(N)(=O)=O)cc3)c3ccccc3c2=O)c1	-0.01	0.2
37	c1ccc(-c2onc3ccc(C4OCCO4)cc23)cc1	-1.3	0.5
38	CC(C)(C)c1cc(N)n(-c2ccc(C(=O)O)cc2)n1	0.38	1.5
39	COc1cccc(CN2CCC(NC(=O)C3CC(C)C4CCCC34)C2)c1[N+](=O)[O-] (stereo not given)	0.29	.
40	COc1cc(/C=N/NC(=O)C(CCSC)NC(=O)c2ccc(C(F)(F)F)cc2)cc(Br)c1OC (stereo not given)	-0.025	.
41	O=C(CCc1ccccc1)N1CCC(c2ccccc2)C1 (stereo not given)	-0.2	0.4
42	Cc1ccc(SC(=O)c2csnn2)cc1	-0.69	-0.6
43	COc1cccc(NC(=O)c2sc3nc(N)c(C#N)c(-c4ccc(C(C)C)cc4)c3c2N)c1	-0.56	.
44	COc1ccc(C2=NOC(C(=O)NCC(C)C)C2)cc1 (stereo not given)	0.16	-0.35
45	COc1cccc(-c2cc(C(=O)Nc3cccc(O)c3)no2)c1	-0.49	0.95
46	Cc1cccc(C(CC(=O)Nc2nc(C)cs2)n2cccc2)c1 (stereo not given)	-0.035	-0.25
47	N#C/C(=C\Nc1ccc(Cl)cn1)S(=O)(=O)c1ccc(Cl)cc1	-0.31	.
48	CCCc1c(C#N)c(N)nc(SCCCN2CCN(c3cccc(Cl)c3)CC2)c1C#N	15	-0.85
49	Cn1ncc2c(N(CCO)Cc3ccccc3)ncnc21	0.12	-0.15
50	CCC(=O)O[C@H]1[C@H](O[C@@H]2[C@@H](C)[C@H](O[C@H]3C[C@@](C)(OC)[C@@H](O)[C@H](C)O3)[C@@H](C)C(=O)O[C@H](CC)[C@@](C)(O)[C@H](O)[C@@H](C)C(=O)[C@H](C)C[C@@]2(C)O)O[C@H](C)C[C@@H]1N(C)C	1	0.2
51	O=c1c2ccccc2cnn1CCOc1ccccc1	-0.4	-0.85
52	O=C(C1CCN(Cc2cnn(-c3ccccc3)c2-n2cccc2)CC1)N1CCC2(CC1)OCCO2	-0.015	-1.6
53	CN1C(=O)c2ccccc2C(C(=O)O)C1c1cccs1 (stereo not given)	0.39	0.45
54	O=C(NCc1ccccc1)c1ccc(=O)n(Cc2ccc(Cl)c(Cl)c2)c1	0.15	.
55	CCOC(=O)c1cnc2c(C)c(Cl)ccc2c1N1CCOCC1	-0.65	-1.3
56	CCSc1nnc(C)c2ccccc12	-0.15	-0.7
57	CC(CCc1ccccc1)NC(=O)CSc1ccccc1Cl (stereo not given)	0.01	-0.2
58	COCC(C)NC(=O)c1ccccc1NS(C)(=O)=O (stereo not given)	21	-1.1
59	Cc1sc2nc(SCC(=O)c3ccc(O)cc3O)[nH]c(=O)c2c1C	.	-0.05
60	COc1ccc(/C=N/n2c(=O)c3c(ncn3/N=C/c3ccc(OC)cc3)n(C)c2=O)cc1	-0.04	-0.5
61	COc1ccc(CCNC(=O)CN(c2cc(C(F)(F)F)ccc2Cl)S(C)(=O)=O)cc1OC	-0.1	.
62	Cc1[nH]c2ccc(-c3nnc(SCCC#N)n3C)cc2c1C	.	-0.5
63	CCNCC(O)c1cccc(OC(=O)c2ccccc2C)c1 (stereo not given)	-1.6	-0.2
64	CCOc1ccc(Nc2nc(Nc3ccc(OCC)cc3)nc(SC3=NCCS3)n2)cc1	-0.31	-0.4
65	O=C(NCc1ccccc1)c1cnn(-c2ccccc2)c1-n1cccc1	-0.66	0
66	COc1ccccc1/C=C1\N=C(c2ccccc2)OC1=O	-0.38	.
67	CC(C)c1ccc(-c2nnn(CC(=O)OC3CCCCC3)n2)cc1	.	-0.4
68	O=C(COC(=O)c1ccccc1-n1cnnn1)c1ccccc1	.	0.3
69	CC1CN(C(=N)c2ccc(Cl)cc2)CC(C)O1 (stereo not given)	-0.28	.
70	O=C(Nc1ccc(Cl)c(Cl)c1)c1ccccc1NS(=O)(=O)c1cccc2nsnc12	-0.4	.
71	O=[N+]([O-])c1ccc(-c2nc(-c3cccc(-c4nc(-c5ccc([N+](=O)[O-])cc5)c(-c5ccccc5)[nH]4)c3)[nH]c2-c2ccccc2)cc1	-0.49	.
72	Cc1ccc(C(=O)N2CCN(C(=O)CC(C)(C)CC(=O)O)CC2)cc1	0.84	.
73	O=C(Cc1ccc(S(=O)(=O)N2CCCC2)s1)Nc1ccc(-c2nnc3n2CCCCC3)cc1	.	-0.55
74	COc1cccc(C(=O)NC2CC3CCCC(C2)N3CC(=O)Nc2ccc(N(C)C)cc2)c1 (stereo not given)	.	-0.7
75	S=C(N=P(N1CCOCC1)(N1CCOCC1)C12CC3CC(CC(C3)C1)C2)N1CCCC1	.	2
76	COC(=O)c1ccc(C2C3=C(CC(C)(C)CC3=O)OC3=C2C(=O)CC(C)(C)C3)cc1	-0.19	.
77	O=C(CCCc1ccccc1)NCC1CCCO1 (stereo not given)	.	-0.9
78	CC(C)C(OC(=O)c1cccs1)C(=O)NC1CCCC1 (stereo not given)	.	2.2
79	CN1CCC(N(C)C(=O)c2nn(-c3ccccc3)c(=O)c3ccccc23)CC1	.	1.9
80	O=C1CCCN1CO	0.51	-0.35
81	Oc1ccc(Cl)cc1N=Cc1ccc(-c2ccc(Br)cc2)o1	5.7	-0.3
82	CN(CCc1ccccn1)c1ncnc2c1oc1ccccc12	.	0.55
83	COc1ccc2ccc(OCC(=O)NCC(F)(F)F)cc2c1	.	-1.1
84	COc1cc(C)nc(NC(=O)NS(=O)(=O)c2c(C)cc(Cl)nc2Cl)n1	-0.46	.
85	CCOC(=O)C(=CNc1c[nH]c(C)c1C(=O)c1ccccc1)C(=O)OCC	-1.4	.
86	CN1C(=O)/C(=C2\SC(=S)N(c3ccc(O)cc3)C2=O)c2ccccc21	-0.23	-0.4
87	CCn1c(COC(=O)c2ccccc2)nc2cc(S(=O)(=O)N(C)C)ccc21	.	-0.3
88	CC(C)c1ccc(-c2noc(C3CCCN(S(=O)(=O)c4ccccc4)C3)n2)cc1 (stereo not given)	.	0.8
89	S=C1COC(c2ccc(Br)cc2)N1c1ccccc1 (stereo not given)	0.1	-0.4
90	CCC(=O)N(c1nnc(SCC(=O)c2cc(C)n(C)c2C)s1)C1CC1	.	0.3

(listing goes on)
no.	canonical_smiles	Ba CapD inh	AID504770
91	O=C(Nc1ccc(-c2nc3ccccc3o2)cc1)c1ccc(S(=O)(=O)N2CCCc3ccccc32)cc1	-0.25	.
92	O=C(COC(=O)Cc1ccc(F)cc1)NCc1ccco1	-0.32	-0.05
93	Cc1c(C(=O)N(C)CCc2ccccn2)sc2ncnc(N3CCN(c4ccccn4)CC3)c12	0.39	.
94	COc1cccc(-n2c(=S)sc3c2nc(SCC(=O)Nc2ccc(OC)cc2OC)n2c4ccccc4nc32)c1	-0.17	.
95	CCOC(=O)c1ccccc1S(N)(=O)=O	0.33	-0.2
96	Cc1cc(NC(=O)c2ccc(C)s2)n(-c2nc3ccccc3n2Cc2ccccc2F)n1	.	-0.05
97	Nc1nc(C(F)(F)F)nn1C(=O)c1ccc(Br)cc1	.	-1.7
98	Cc1noc(C)c1S(=O)(=O)N1CCCC1c1ccc2c(c1)OCCCO2 (stereo not given)	.	2.1
99	Cc1ccc(C(C)C)cc1S(=O)(=O)NCc1ccccn1	-0.41	-0.85
100	COC(=O)C1(C(F)(F)F)N=C2C=CC=CN2C(c2ccco2)=N1 (stereo not given)	-0.64	1
101	CCCNC(=O)Nc1ccccc1N1CCCCC1	.	-0.6
102	O=C(NC1CCCCC1)NC(c1ccc(Cl)cc1)c1nnc(-c2ccccc2)o1 (stereo not given)	0.43	0.7
103	C=CCNc1nc2ccccn2c(=O)c1/C=C1\SC(=S)N(CCOC)C1=O	0.23	1.9
104	CC1=CC(=C(C#N)c2nc3ccccc3s2)C=C(C)N1Cc1ccco1	.	-0.4
105	Nc1ncc(Cc2cccc3ccccc23)s1	-0.095	-1
106	Cc1nn(C)c(C)c1[N+](=O)[O-]	-0.2	.
107	CC(C)[C@H](NS(=O)(=O)c1ccc2c(c1)OCCO2)C(=O)N=c1sc2ccccc2n1C	.	0.2
108	Cc1ccccc1C(=O)N1N=C(c2ccc(F)cc2)CC1(O)C(F)(F)F (stereo not given)	-0.29	.
109	COc1cccc(NC(=O)c2sc3nc(C)nc(N4CCN(c5ccccn5)CC4)c3c2C)c1	0.44	.
110	CCCN1CCN(C(=O)Cn2ncc3c4ccccc4n(Cc4c(C)cc(C)cc4C)c3c2=O)CC1	2.1	0.1
111	NS(=O)(=O)c1ccc(CCn2c(=S)[nH]c3c(sc4ccccc43)c2=O)cc1	0.035	0.35
112	COc1ccccc1CNC(=O)c1ccc2c(c1)nc(C)n2-c1ccc(Br)cc1	-0.41	.
113	CC(C)CSc1nnc(-c2nn(Cc3ccccc3)c(=O)c3ccccc23)o1	.	-0.7
114	OC(CNc1ncnc2sccc12)c1ccccc1 (stereo not given)	.	-0.6
115	NNC(=S)c1cc(Cl)cc(Cl)c1	-0.53	-0.6
116	COc1ccccc1Nc1nc(-c2ccccc2)cs1	-0.32	-0.1
117	COC(=O)CC(NS(=O)(=O)c1cccs1)c1ccccc1Cl (stereo not given)	0.6	.
118	CCOc1cccc2sc(NC(C)=O)nc12	.	-0.1
119	COCc1cc(=O)n(-c2ccccc2)[nH]1	-0.41	0.5
120	COc1cnc2c(n1)c(=O)n(C)c(=O)n2C	83	-0.75
121	CC(C)(CN)C12CC3CC(CC(C3)C1)C2	3.7	-0.15

Exported with each value named: entries from further up
#114 OC(CNc1ncnc2sccc12)c1ccccc1 (stereo not given)
  Ba CapD inh: .
  AID504770: -0.6

#97 Nc1nc(C(F)(F)F)nn1C(=O)c1ccc(Br)cc1
  Ba CapD inh: .
  AID504770: -1.7

#109 COc1cccc(NC(=O)c2sc3nc(C)nc(N4CCN(c5ccccn5)CC4)c3c2C)c1
  Ba CapD inh: 0.44
  AID504770: .

#106 Cc1nn(C)c(C)c1[N+](=O)[O-]
  Ba CapD inh: -0.2
  AID504770: .
